PV pol inh = poliovirus RdRp elongation inhibitors, primary screen, biochemical, fluorescence polarization, total intensity. Genome polyprotein (Poliovirus type 1 (strain Mahoney)), P03300. poliovirus polymerase elongation; active compounds read low. % elongation, % (compound at 16.7 µg/mL). actives 0.66% (n = 150,000). AID 588519, 2011; in the data active means % elongation below about 90%; further: some results filed as inactive read as strong as hits
Target sequence (P03300 1749-2209 limits assumed): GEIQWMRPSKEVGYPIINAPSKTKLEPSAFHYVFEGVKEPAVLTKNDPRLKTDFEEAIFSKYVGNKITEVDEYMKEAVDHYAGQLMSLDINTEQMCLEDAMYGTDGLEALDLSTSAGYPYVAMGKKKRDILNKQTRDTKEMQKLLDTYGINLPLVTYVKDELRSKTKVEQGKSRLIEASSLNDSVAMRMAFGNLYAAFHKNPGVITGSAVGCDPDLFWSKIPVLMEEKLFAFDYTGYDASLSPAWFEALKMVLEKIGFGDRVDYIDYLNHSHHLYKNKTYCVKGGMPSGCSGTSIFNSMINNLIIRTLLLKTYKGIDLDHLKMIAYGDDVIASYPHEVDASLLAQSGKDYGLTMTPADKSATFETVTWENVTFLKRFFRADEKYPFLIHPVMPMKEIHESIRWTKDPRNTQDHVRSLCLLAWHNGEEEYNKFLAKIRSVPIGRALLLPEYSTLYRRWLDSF
MenB inh = M. tuberculosis MenB inhibitors, primary screen, biochemical, absorbance. actives 0.43% (n = 100,000). 1,4-dihydroxy-2-naphthoyl-CoA synthase (Mycobacterium tuberculosis (strain ATCC 25618 / …. inhibition, %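 (about 12 µg/mL by stock and volumes)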. AID 540299, 2011. MenB enzyme assay, absorbance read-out; some hits fall short of the stated cut;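 active means mean of two replicates above 30%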;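 further: 0% = no compound and 100% = wells with inactive enzyme; the first replicate is given; strong numbers were not always called active; inactives centre near -10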
MbtI inh = MbtI salicylate synthase inhibitors, primary screen, biochemical, fluorescence intensity. P9WFX0. purified MbtI enzyme, fluorescence intensity read-out. inhibition, %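 (about 17 µg/mL by stock and volumes)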. actives 0.89% (n = 100,000). AID 493033, 2011;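 active means above 50% in both replicates, above 80% if mildly self-fluorescent; inactive means the rest, strongly fluorescent compounds included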;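 further: 0% = mean of negative and 100% = mean of positive controls; one replicate is shown; some compounds called inactive have numbers as strong as hits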
Target sequence (P9WFX0 whole entry, looked up): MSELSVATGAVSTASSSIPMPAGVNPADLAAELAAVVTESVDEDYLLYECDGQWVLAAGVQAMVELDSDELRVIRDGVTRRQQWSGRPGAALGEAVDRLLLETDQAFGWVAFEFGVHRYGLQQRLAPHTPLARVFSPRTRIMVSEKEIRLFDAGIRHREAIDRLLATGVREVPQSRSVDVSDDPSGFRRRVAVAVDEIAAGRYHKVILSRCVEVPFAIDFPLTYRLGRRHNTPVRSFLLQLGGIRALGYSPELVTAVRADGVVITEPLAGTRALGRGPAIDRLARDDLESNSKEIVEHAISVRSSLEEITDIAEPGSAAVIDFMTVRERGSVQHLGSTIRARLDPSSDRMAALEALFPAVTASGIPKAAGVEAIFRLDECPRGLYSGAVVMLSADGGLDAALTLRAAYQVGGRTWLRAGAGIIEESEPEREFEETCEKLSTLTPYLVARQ
PV pol inh intensity = further read-out of PV pol inh, marked with its call; % elongation; measured here: total intensity read-out; formula for this scale not given here;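 total fluorescence in place of polarization; lower means less elongation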
* = called active by the depositor; nt = not tested or not shown; & = joins results of further samples.

SMILES	PV pol inh	PV pol inh intensity	MenB inh	MbtI inh
O=C(NC1CCCCC1)c1cc(-c2ccccc2)nc2ccccc12	102	106	-16	11
CN1CCN(NC(=O)Cc2ccccc2Cl)CC1	102	106	8	-15
O=c1[nH]ncc2c1[nH]c1ccccc12	99	102	0	88
CCOc1ccc(NC(=O)c2c(N)sc3c2CCC3)cc1	104	108	3	nt
CN/N=C/c1ccc(C#N)cc1	107	108	6	30
O=c1[nH]c(CSc2cccc[n+]2[O-])nc2ccccc12	102	105	nt	31
Oc1ccccc1/C=N/C1=NNC(c2ccccc2)=CS1	106	95	-32	nt
O=C(c1ccccc1C(F)(F)F)N1CCCc2ccccc21	nt	nt	-8	-10
O=C(COC(=O)c1cncc(Br)c1)NCc1ccc(F)cc1	105	113	6	3
CC(NS(=O)(=O)c1ccc(N)cc1)C1CC2CCC1C2 (stereo unspecified)	106	108	-6	-13
CCN(c1ccccc1)S(=O)(=O)c1ccc(N)cc1	102	102	-1	-17
CCC(C)C(=O)O[C@H]1[C@H](O)C2C(CN3CC(C)CCC3[C@@]2(C)O)C2C[C@]34O[C@]5(O)C(OC(=O)C(C)(O)C(C)O)CC[C@@]3(C)C5C(OC(C)=O)[C@@H](OC(C)=O)C4[C@@]21O (stereo partly specified)	99	100	-6	3
CCC(=O)Nc1ccc(Cl)cn1	104	102	-19	-8
O=S1(=O)c2cccc3cccc(c23)N1CC1CN(Cc2ccccc2)CCO1 (stereo unspecified)	102	92	-6	28
CCOC(=O)c1c[nH]c2c(ccc3ccccc32)c1=O	102	100	-4	-16&8
Cc1cc(=O)n(CCOc2ccccc2)c2c1c(C)nn2-c1ccccc1	101	101	-5	-8
CCCC(=O)Nc1ccc2nc(-c3ccccc3)[nH]c2c1	104	100	-79	89
CN(Cc1ccccc1)S(=O)(=O)c1ccc2c(c1)n(C)c(=O)n2C	100	104	5	-4
O=C(O)C1CC(=O)N(CCCN2CCOCC2)C1 (stereo unspecified)	103	103	-18	-12
Cn1c(C2CCCO2)nc2ccccc21 (stereo unspecified)	100	103	18	1
S=C1NC2=C(CCc3ccccc32)C(c2cccnc2)N1 (stereo unspecified)	102	105	-27	75
CCN1C(=O)/C(=C2\SC(=S)N(N)C2=O)c2ccccc21	101	104	-106	-17
Cc1ccc(Cn2nnc3c(=O)[nH]c(C(=O)NC(C)(C)C)nc32)cc1	102	103	-26	-10
Nn1c(SCC(=O)NC(=O)NC2CCCC2)nnc1SCC(=O)NC(=O)NC1CCCC1	109	121	-13	-8
NC(=S)Sc1nncn1C(=O)c1ccc(=O)[nH]n1	103	98	-19	8
The listing continues.
SMILES	PV pol inh	PV pol inh intensity	MenB inh	MbtI inh
CN(CC1COc2ccccc2O1)c1nnnn1-c1ccccc1 (stereo unspecified)	98	96	11	-10
Cc1cc(NC(=O)c2cc(-c3cccc(O)c3)on2)no1	103	106	6	-7
O=C(NNc1ncnc2sc3c(c12)CCCC3)c1ccccc1-n1cccc1	100	105	-20	-6
CN(C)/N=C(\NO)c1c(F)cccc1Cl	107	106	6	-8
Cc1ccc(NC(=O)C2CCCN(S(=O)(=O)c3ccc4c(c3)CC(C)N4C(=O)C3CC3)C2)nc1 (stereo unspecified)	101	105	-10	-4
CC(CCc1ccccc1)NC(=O)CN1CC(C)OC(C)C1 (stereo unspecified)	103	107	-10	-7
CC1=NN(CCC#N)C(=O)/C1=C\c1ccc(N(C)C)cc1	97	97	-17	5
FC(F)(F)c1cc(Br)cc(Br)c1	107	115	-2	-8
CN(C)S(=O)(=O)c1ccc(C(=O)N2CCCCCCC2)cc1	101	103	-22	11
COC(=O)Cn1cnc2c(cnn2-c2ccc(F)cc2)c1=O	102	104	-1	-4
O=C1CCC(C(=O)OCc2nnc(-c3ccccc3)o2)=NN1	105	111	3	-6
CSc1nnc(CCNC(=O)N2CCOCC2)n1C(C)C	103	101	-48	-4
CN(C)/C=C/C(=O)c1ccccc1	100	91	-4	18
C=CCn1c(C2CC(=O)N(c3cccc(C)c3)C2)nc2ccccc21 (stereo unspecified)	105	105	2	-10
NC1=NC(c2ccccc2)CC(=O)N1 (stereo unspecified)	102	103	-10	6
CN(C)/C=C1\COc2ccc(Cl)cc2C1=O	106	107	-79	21
O=S(=O)(Nc1ccc(O)c2ccccc12)c1ccccc1	102	103	-70	105
Cc1ccc(NC(=S)Nc2cc(C(=O)N3CCC4(CC3)OCCO4)ccc2N2CC3CC(C2)c2cccc(=O)n2C3)cc1 (stereo unspecified)	103	103	-26	-15
CSc1ccccc1NC(=O)C1CC1C (stereo unspecified)	96	104	-2	9
Cc1csc(C(C#N)C(=O)CSc2nnc(Nc3cccc(F)c3)s2)n1 (stereo unspecified)	109	127	-24	13
CC1CCCC/C1=N\NC(N)=O (stereo unspecified)	105	101	-23	-8
COC(=O)CN1CC(=O)NC(=O)C1	108	124	-5	1
COc1ccc(OCC(=O)NCC(=O)O)cc1	105	100	-15	nt
OC(c1ccc(Cl)cc1)c1nnc(-c2ccccc2)o1 (stereo unspecified)	105	109	-2	-2
CCOc1ccc(CN(C2CC2)S(=O)(=O)c2ccc(S(=O)(=O)N(C)C)cc2)cc1	104	101	4	-10
New compounds follow
SMILES	PV pol inh	PV pol inh intensity	MenB inh	MbtI inh
C=CCn1c(=S)sc2c(=O)n(Cc3cccc(C(F)(F)F)c3)cnc21	104	106	-48	-1
O=C(NCc1ccc(F)cc1)c1cccc2c1C(=O)N(Cc1cccnc1)C2	103	103	-16	-6
CCCOc1nc(N)c(C#N)c(-c2ccccc2F)c1C#N	103	105	-27	85
O=C(NCC(=O)c1cccs1)NC1CCCC1	100	104	0	1
CCCC(C)C(=O)Nc1nnc(C)s1 (stereo unspecified)	107	102	-5	nt
O=C(Nc1ccccc1C(=O)NCc1ccccc1)c1ccccc1	103	105	-8	-11
O=C(CN1C(=O)c2ccccc2C1=O)NCC(F)(F)F	103	105	-5	0
S=c1[nH]c2c(s1)sc1ccccc12	102	98	-83	91*
CCc1ccc(S(=O)(=O)c2cn(C)c3ccccc3c2=O)cc1	103	107	-5	-1
COc1ccc(C(=O)N2CCc3ccccc32)cc1OC	99	97	2	nt
N#Cc1ccccc1Cn1cc(C=C2C(=O)NC(=O)NC2=O)c2ccccc21	100	107	8	1
Cc1ccc(Nc2nc(Oc3ccc(=O)n(-c4ccccc4)n3)nc(N(C)C)n2)cc1	102	101	-11	8
CCCCNC(=O)C1CCC(CNS(=O)(=O)c2ccccc2)CC1 (stereo unspecified)	100	101	13	-4
N#CCc1c(C#N)c(N)nc(N2CCN(Cc3ccc4c(c3)OCO4)CC2)c1C#N	111	121	-6	-6
CCC1c2[nH]c3ccccc3c2CCN1C(=O)c1ccc(Cl)cc1 (stereo unspecified)	105	113	-13	-12
O=C(COC(=O)c1ccc2c(=O)n3c(nc2c1)CCCCC3)Nc1ccc2c(c1)OCCO2	104	99	0	-15
Cc1nc(-c2ccncc2)nc(NCCNc2ccc(C(F)(F)F)cn2)c1Cl	102	98	-16	-4
Nc1ncnc2c1ncn2CCNCc1ccc2c(c1)OCO2	102	102	-28	10
Cc1oc(S(=O)(=O)N2CCOCC2)cc1-c1nc(-c2ccc(C(F)(F)F)cc2)no1	103	100	2	-3
NCC(c1ccco1)N1CCOCC1 (stereo unspecified)	102	103	-6	0
Cc1cccc(C)c1NC(=O)C1c2cccc[n+]2CC(=O)N1CCO (stereo unspecified)	102	104	-10	-4
CCCCNS(=O)(=O)c1ccc(S(=O)(=O)n2cnc3ccccc32)cc1	101	101	0	-5
O=C(O)CN1C(=O)CSc2ccccc21	102	104	-5	nt
Cc1cc2ccccc2c(=O)n1CC(=O)NCCC1=CCCCC1	103	103	-9	11
CCOC(=O)c1sc2nc(NC(=O)c3cccs3)sc2c1C	100	105	-30	-1
Further results follow.
SMILES	PV pol inh	PV pol inh intensity	MenB inh	MbtI inh
CS/C(=N\S(=O)(=O)c1ccc(C)cc1)N1CCCCCC1	102	99	-3	-3
Nc1cc(N)nc(SCC(=O)NCc2ccccc2)n1	99	101	13	-8
COC(=O)CCC(=O)N1CCOCCOCCOCC1	102	105	2	-11
O=C(COC(=O)C1(CC(=O)N2CCOCC2)CCCC1)Nc1c(F)cccc1F	101	112	-8	-24
COc1ccccc1NC(=O)COc1ccccc1O	102	103	nt	-11
CC1=[N+]([O-])C(N2CCOCC2)C(O)(c2ccccc2)C1 (stereo unspecified)	103	102	11	5
FC(F)(F)Oc1ccc(N=Cc2ccc(Br)cc2)cc1	106	113	-4	nt
Cc1nc2ccc(C(=O)OCC(=O)C(C)(C)C)cc2nc1C	104	107	-14	9
CC(C)(C)OCC(O)CN1CCN(C(=O)c2ccccc2)CC1 (stereo unspecified)	101	101	7	-6
CC(C)N(CC(N)=O)c1nc(-c2cccnc2)nc2ccccc12	102	108	-5	13
CCC(C)n1nccc1NC(=O)C(C)Sc1ccccc1F (stereo unspecified)	105	108	-10	18
Cc1ccc(N/C(=N/C(N)=S)c2ccccc2)cc1	101	100	-6	5
Nc1ncc(N=Nc2cc(C(=O)O)cc(C(=O)O)c2)s1	82*	84*	-273	19
CN(C)Cn1c(O)c(N=NC(=O)COc2ccc(Cl)cc2)c2ccccc21	100	101	13	-1
FC(F)(F)c1cccc(N2Cc3ccccc3C2)c1	102	101	-20	12
COC(=O)c1cccnc1NC(=S)NC1CCCCC1	101	103	10	10
COC(=O)c1ccc2nc(C)ccc2c1	104	109	nt	-5
C[n+]1ccccc1/C=N/O	103&100	99&101	-12&2	2&-19
COC(=O)c1cccc(NC(=O)CSc2ncccn2)c1	98	99	-14	29
Cc1csc2c(N3CCN(C(=O)c4ccc(Cl)cc4)CC3)ncnc12	100	104	-19	-1
CCOc1ccc(S(=O)(=O)N(C)CC(=O)NC2CCCCC2)cc1C	100	99	-24	-28
CC(=O)Nc1ccc(C(=O)OCC(=O)N2CCc3ccccc3C2)cc1	102	107	nt	13
O=C1CS/C(=N\N=C2C3CC4CC(C3)CC2C4)N1	101	102	-21	-15
COc1ccc(CNC(=O)CN2CC(C)CC(C)C2)c(OC)c1 (stereo unspecified)	106	101	-34	-9
CCCCC1CCC(C(=O)Nc2nonc2-c2ccc(OCC)c(OCC)c2)CC1 (stereo unspecified)	102	97	-1	-2
Other results follow.
SMILES	PV pol inh	PV pol inh intensity	MenB inh	MbtI inh
COc1ccccc1NC(=O)N1CCN(Cc2ccccc2)CC1	104	100	-2	-6
CCOP(=O)(/C(C#N)=C(\C)O)c1ccccc1 (stereo unspecified)	103	104	-2	-43
CCOC(=O)N1CCN(C(=O)C(NC(=O)c2ccc(C(C)(C)C)cc2)C(C)C)CC1 (stereo unspecified)	nt	nt	-4	-8
COC(=O)C1=C(Nc2ccccc2NC(=O)c2ccccc2C(=O)O)CSC1	105	106	-7	19
COc1cccc(-c2ocnc2C(=O)Nc2ccc(N3Cc4ccccc4C3)cc2)c1	106	102	-23	5
CN1CCc2c(sc(-n3cccc3)c2CNC(=O)NCc2ccccc2)C1	105	100	-25	8
O=C(CSc1nc(-c2ccccc2)c(-c2ccccc2)o1)c1ccc[nH]1	103	98	-38	-21
O=C1C2C(C(=O)N1c1ccccc1)C1C=CC2C12CC2 (stereo unspecified)	101	102	-14	0
CS(=O)(=O)Nc1nnc(CSc2ccccc2)s1	102	103	-16	-3
Nc1ccc2nc(N3CCOCC3)sc2c1	105	108	-28	5
CCOCCCNc1ccc2nc3ccc(C)cc3c(=O)n2n1	104	104	-103	-5
CN(C)/C=C/C=C1/CCc2ccccc2C1=O	81	172	-278	48
N/C(=N\OC(=O)Oc1ccccc1)c1ccccn1	101	104	-2	3
CCCn1c(C)cc(-c2csc(NC(=O)Cc3ccc(OC)cc3)n2)c1C	111	129	-36	-12
CCOC(=O)c1sc(COc2ccc(C3SCCS3)cc2)nc1C	104	100	-6	-3
Cc1ccc(-c2nn(-c3ccccc3)cc2CN(Cc2ccccc2)C(=O)CCC(=O)O)o1	103	103	-21	118
O=C(Cc1ccccc1)Nc1ccccc1N1CCOCC1	108	106	3	nt

Screening data (PubChem)

An unsorted share of the library; overall some 2% were active at least once.
